AID923 – qHTS Assay for Allosteric/Competitive Inhibitors of Caspase-1: Spectroscopic Profiling in AFC Spectral Region; AID 923, 2007; Potency, µM (titrated, usually from 57.5 µM), inactives show top-dose fluorescence increase, hits mostly activators; compound fluorescence, AFC spectral region (405/520 nm); almost no hit is shown here; hit rate 1.1% among 75,000; active means well fitted activation curve with a large enough effect; inconclusive means small, poorly fitted or top-dose-only effect;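 further: potency means the concentration at half of the fitted maximal effect; 0% is about no effect; scaled to a free AFC standard on each plate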
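Baseline compound fluorescence (AFC region, 405 nm ex/520 nm em) taken from the intercept of kinetic reads with 50 nM caspase-1 and 5 uM Ac-WEHD-AFC; normalized to an on-plate AFC standard curve; compounds titrated up to 57 uM.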
TSHR agonist – activates the human thyroid stimulating hormone receptor; hit rate 0.48% among 73,000; Potency, µM (top dose mostly 57.1 µM), for inactives: at the highest dose activation, hits mostly activators; HEK293-CNG-TSHR cells (CNG channel as cAMP sensor), membrane potential dye, cAMP; active = well fitted activation curve of enough size with the parental cells flat; inconclusive = any curve in the parental cells; inactive = parental cells flat and receptor cells flat or falling; further: potency means the concentration at half of the fitted maximal effect; % of control where 0% means no effect; weak receptor curves with flat parental cells got no call and are not listed
Target sequence (P16473 whole entry, looked up): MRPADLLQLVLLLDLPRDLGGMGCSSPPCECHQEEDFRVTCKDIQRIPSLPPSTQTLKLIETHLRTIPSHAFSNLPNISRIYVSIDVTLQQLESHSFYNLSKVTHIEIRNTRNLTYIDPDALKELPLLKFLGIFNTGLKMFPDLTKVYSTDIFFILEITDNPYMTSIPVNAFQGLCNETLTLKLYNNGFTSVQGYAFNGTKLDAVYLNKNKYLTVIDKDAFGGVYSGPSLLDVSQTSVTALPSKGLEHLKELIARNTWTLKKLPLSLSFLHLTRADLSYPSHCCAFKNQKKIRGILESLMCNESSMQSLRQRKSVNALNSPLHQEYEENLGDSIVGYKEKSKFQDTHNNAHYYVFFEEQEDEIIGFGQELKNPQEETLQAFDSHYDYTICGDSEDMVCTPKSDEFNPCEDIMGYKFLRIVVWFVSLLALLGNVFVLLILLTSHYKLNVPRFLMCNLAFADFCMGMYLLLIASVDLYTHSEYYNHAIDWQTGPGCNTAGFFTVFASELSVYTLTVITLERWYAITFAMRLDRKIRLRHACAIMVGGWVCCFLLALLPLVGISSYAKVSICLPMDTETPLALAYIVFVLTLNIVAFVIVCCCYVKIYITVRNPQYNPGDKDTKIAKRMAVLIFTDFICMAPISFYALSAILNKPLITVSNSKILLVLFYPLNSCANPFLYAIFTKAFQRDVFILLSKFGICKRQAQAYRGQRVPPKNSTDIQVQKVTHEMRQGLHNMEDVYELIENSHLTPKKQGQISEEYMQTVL
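cAMP rise detected as CNG-channel membrane depolarization by fluorescent dye (emission 590 nm), 30 min after compound, following 60 min dye loading containing 100 uM RO 20-1724 at room temperature. Cells: TSHR/CNG HEK 293, with parental CNG HEK 293 as control.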
A488 autofl – A488 region autofluorescence. compound autofluorescence, A488 spectral region, dye equivalency; active compounds read high. max dye equivalency, M. hit rate 0.1% among 59,000. AID 591; active = above 10 nM dye equivalent; inconclusive = 1 to 10 nM; inactive = 1 nM or less; about half of its hits are not listed in these tables;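 further: highest value over a series up to 38 µM; compound alone in buffer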
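Spectroscopic profiling in the A488 region: compounds in pH 8.0 Tris (100 mM), 15 min RT, CCD imaging with 480 nm excitation and 540 nm emission; responses normalized against A488 dye standards.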
A647 autofl – compound autofluorescence in A647 spectral region | 59,000 tested, under 10 active | AID 592 | max dye-equivalent concentration, M | Compound fluorescence, A647 channel (570/671 nm), Tris buffer; active means above 1 µM dye equivalent; inconclusive means 0.1 to 1 µM; inactive means 0.1 µM or less;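 further: values scaled relative to a standard on each plate; highest value over a series up to 38 µM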
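Each compound's intrinsic fluorescence at 570 nm excitation and 671 nm emission is measured across its concentration series in 100 mM Tris, pH 8.0, after 15 min at room temperature, and reported relative to an A647 curve.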
Resorufin fluor – compound fluoresces in the resorufin spectral region; Compound fluorescence, resorufin region 547/598 nm, buffer; active compounds read high; max dye-equivalent concentration, M; hit rate 0.04% among 59,000; AID 588; active = above 10 nM dye equivalent; inconclusive = 1 to 10 nM; inactive = 1 nM or less; a few of its hits are not listed in these tables; further: highest value over a series up to 38 µM
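Dye-equivalent concentration values derive from comparing each well's 547/598 nm fluorescence against resorufin standards included on every plate. Incubation was 15 min at room temperature in 100 mM Tris, pH 8.0.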
Active calls of the source: *; i = inactive; ? = inconclusive; · = not tested or not shown; & = joins results of further samples; [ ] = remark or other dose. A portion of the library; rates above refer to the full screens.

SMILES | Resorufin fluor | AID923 | TSHR agonist | A488 autofl | A647 autofl
O=S(=O)(NCCSc1ccccc1)c1ccc(F)cc1 | i | -1.2% | 17.3% | i | 5.1e-09
O=C(COc1ccc(Cl)cc1)NCc1nnc(SCC(=O)NC2CCCC2)o1 | i | 1.1% | 0.7%[11.4 µM] | i | 1e-09
COc1ccc(OCC(=O)NCc2cccnc2)cc1 | i | 3.0% | 24.7% | i | 7.9e-09
C#CCSc1nnc(-c2ccccc2)c(=O)[nH]1 | i | 0.8% | -2.4% | i | 4.7e-09
COc1ccc(C(N)=O)cc1NC(=O)CC(O)(C(F)(F)F)C(F)(F)F | i | 1.2% | 5.7% | i | 6.4e-09
CN(C)c1oc(-c2ccco2)nc1C#N | i | 0.9% | 1.1% | i | 1e-09
COc1ccc(CCn2c(N3CCN(C)CC3)nc3c2c(=O)[nH]c(=O)n3C)cc1 | i | -4.0% | 3.2% | i | 1.73e-08
Cc1noc(C)c1-c1ccc2ncnc(N3CCOCC3)c2c1 | i | -1.4% | 1.4% | i | 2.75e-08
COC(=O)Nc1nc2ccc(C(=O)c3ccccc3)cc2[nH]1 | i | -2.4% | -12.3%[25.6 µM] | i | 1e-09&2.11e-08
Cc1cccc(NC(=O)CCn2ccnc2C)c1 | i | 0.3% | 11.5% | i | 3.08e-08
COc1ccc(CCN(Cc2cc3cc(C)ccc3[nH]c2=O)C(=O)N2CCCC2)cc1OC | i | 1.0% | 7.6% | i | 3.83e-08
CCOC(=O)Cc1csc(NC(=O)CN2C(=O)c3ccccc3S2(=O)=O)n1 | i | 0.8% | ? | i | 1.67e-08
CCOC(=O)CNC(=O)Cn1cnc2ccc(S(=O)(=O)N3CCC(C)CC3)cc2c1=O | i | -0.4% | 5.1%[11.4 µM] | i | 1e-09
Cc1ccc(S(=O)(=O)NCCSc2nnc(N)s2)cc1 | i | 0.1% | 8.7% | i | 3.4e-09
COCCNC(=O)C(c1ccco1)N(C(=O)Cn1nnc2ccccc21)c1ccccc1C (stereo not drawn) | i | 0.6% | 21.0% | i | 3.92e-08
CCOC(=O)N1CCC(NC(=O)c2ccc(CS(=O)(=O)c3ccc(OC)cc3)o2)CC1 | · | 1.1% | 2.9% | · | ·
CCc1[nH]c(=O)c(C#N)c2c1CSC(C)(C)C2 | i | · | · | i | 1e-09
CSCCC(NC(=O)c1cncc(Br)c1)C(=O)O (stereo not drawn) | i | 2.4% | -3.6% | i | 2.95e-08
CCOC(=O)C1CCCN(C(=O)c2cc(-c3ccccc3)on2)C1 (stereo not drawn) | i | 0.6% | 12.5% | i | 4.2e-08
CCCn1c(SCC(=O)/C(C#N)=C(\C)N)n[nH]c1=O | i | -0.1% | 2.4% | i | 9.6e-09
COc1ccccc1OCC(=O)N1CCNC1=O | · | 0.5% | -3.6% | · | ·
CCOc1cc(/C=C(/C#N)c2ccc(F)cc2)ccc1OCc1ccc(C(=O)O)o1 | i | 1.5% | -17.2% | i | 1.55e-08
CCOc1ccc(NC(=O)C2CSC(c3ccncc3)=N2)cc1 (stereo not drawn) | · | -1.1% | ? | · | ·
COc1cc(C(=O)N(CCc2ccccc2)C2CC3CCC(C2)N3C)cc(OC)c1OC (stereo not drawn) | i | -0.6% | -0.4%[11.4 µM] | i | 6.2e-09
CC(CCCC(C)(C)O)NCCO (stereo not drawn) | · | 6.5% | 9.2% | · | ·
O=C(O)c1ccc(Cl)c(S(=O)(=O)Nc2ccccc2F)c1 | · | 0.3% | -1.0% | · | ·
COc1ccc(CN2C(=O)C(O)(CC(=O)c3c(C)n[nH]c3C)c3ccccc32)cc1OC (stereo not drawn) | i | 0.3% | -10.3% | i | 7e-09
Cc1nc2cnc(Oc3ccccc3)nc2n(CCc2ccccc2)c1=O | i | -0.3% | ? | i | 2.47e-08
COC(=O)COC(=O)c1ccc(Oc2nc(OC)nc(N(C)C)n2)cc1 | · | 2.4% | 4.9% | · | ·
COc1cccc(Nc2ncc3nc(C)c(=O)n(CCc4ccccc4)c3n2)c1 | i | 17.8% | ? | i | 1.02e-08
COc1ccc(-c2nc(C#N)c(NCC3CCCO3)o2)cc1 (stereo not drawn) | i | -1.0% | 13.0% | i | 6.34e-08
O=C(NCCc1ccccc1)C1CCCN(C(=O)NC2CCCCC2)C1 (stereo not drawn) | i | 0.9% | 1.3% | i | 1e-09
O=C(Cn1c(=O)oc2ccccc21)N1CCCCC1 | i | 3.3% | 11.2% | i | 6.73e-08
COCCCn1c2nc3ccccc3nc2c2c(=O)n(Cc3ccccc3Cl)cnc21 | i | 1.0% | ? | i | 1.97e-08
CCCCCCCCCCCCC/C=C\[C@@H](O)[C@H](CO)NC(C)=O | · | -1.9% | 2.0% | · | ·
Cc1cccc(NC(=O)Cn2c(=O)oc3ccccc32)c1 | i | 0.4% | 1.0% | i | 1.7e-09
O=C(COC(=O)c1ccccc1)NCc1ccco1 | i | -0.4% | -1.0% | i | 1e-09
Cc1onc(-c2ccccc2Cl)c1C(=O)N1CC(C)OC(C)C1 (stereo not drawn) | i | 0.8% | 3.9% | i | 1e-09
O=C(COC(=O)c1cnccn1)c1ccccc1 | i | 0.7% | 5.3% | i | 4.41e-08
COc1ccc(S(=O)(=O)N[C@@H](CC(C)C)C(=O)O)cc1 | i | 0.2% | 4.9%[11.4 µM] | i | 3e-09
O=C(Nc1nc(-c2ccc3c(c2)OCO3)cs1)C1COc2ccccc2O1 (stereo not drawn) | · | -3.3% | ? | · | ·
O=C(Cn1c(=O)oc2ccccc21)N1CCN(c2ccccc2)CC1 | i | -0.8% | -4.6%[11.4 µM] | i | 2.86e-08
O=C(CSc1ccccc1)Nc1ccc(S(=O)(=O)NCC2CCCO2)cc1 (stereo not drawn) | i | 1.4% | -4.7% | i | 1.93e-08
CN(C)C(=O)c1ccc(-c2nc(NCc3cccnc3)c3ccccc3n2)cc1 | i | -1.0% | 19.2% | i | 2.9e-09
COC(=O)c1c(NC(=O)CN2CCN(c3ccccc3OC)CC2)c2cc(C)ccc2n1C | i | 0.9% | 32.5% | i | 1.02e-08
Cc1ccc(-c2noc(CSc3nnc(-c4ccccc4)n3C)n2)cc1 | i | 7.1% | ? | i | 1.7e-08
O=C(NCc1ccco1)C(c1cccnc1)N(C(=O)Cn1nnc2ccccc21)c1ccc(F)cc1 (stereo not drawn) | i | 2.8% | 2.4% | i | 7.3e-09
N#Cc1ccc(CSc2ncnc3c2cnn3Cc2ccccc2)cc1 | i | 0.6% | ? | i | 8.3e-09
CN(CCC#N)S(=O)(=O)c1ccc2c(c1)c(=O)n(C)c(=O)n2C | i | 3.7% | -2.7% | i | 3.6e-09
CCCCCCn1c(N(CC)CC)nc2c1c(=O)[nH]c(=O)n2C | i | 0.9% | 7.7% | i | 3e-08
CC(=O)c1cccc(NC2c3ncccc3C(=O)N2Cc2ccco2)c1 (stereo not drawn) | i | -0.1% | -2.5% | i | 1e-09
CCOC(=O)c1ccc(NC(=O)NCc2ccn(CC)n2)cc1 | i | -0.7% | 4.7% | i | 6.49e-08
C1CCC2(CC1)C1=C(CCCC1)Nc1nnnn12 | · | -0.4% | ? | · | ·
COc1ccc(-c2nnc3sc(-c4ccccc4OC)nn23)cc1 | i | · | · | i | 4.41e-08
O=C(OCc1nc2ccccc2s1)c1ccc(Br)s1 | i | 8.0% | ? | i | 1e-09
COC(=O)[C@@]1(Cc2ccccc2)[C@H]2c3cc(C(=O)N4CCCC4)n(Cc4cc(F)cc5c4OCOC5)c3C[C@H]2CN1C(=O)c1ccccc1 | · | 3.9% | ? | · | ·

Carrying on.
SMILES | Resorufin fluor | AID923 | TSHR agonist | A488 autofl | A647 autofl
Cc1nnc2c3ccccc3c(-c3ccccc3)nn12 | i | 0.0% | ? | i | 3.73e-08
O=C(O)CCc1nc(-c2ccccc2)c(-c2ccccc2)o1 | i | -0.6%[11.5 µM] | 9.3%[11.4 µM] | i | 3.62e-08&3.66e-08&1.48e-08
COC(=O)c1ccc(C2/C(=C(\O)c3ccc4c(c3)OCCO4)C(=O)C(=O)N2CCCN(C)C)cc1 (stereo not drawn) | i | · | · | i | 1e-09
Cc1cc(C)n(-c2c(F)c(F)c(CN3CCOCC3)c(F)c2F)n1 | i | -0.5% | 6.0% | i | 1.49e-08
O=C(O)CCC(=O)N1CCc2cc(S(=O)(=O)NC3CCCc4ccccc43)ccc21 (stereo not drawn) | i | -0.2% | 1.5% | i | 2.88e-08
COC(=O)c1ccccc1NC(=O)c1cncc(Br)c1 | i | 1.4% | 12.8% | i | 2.1e-08
COc1cccc(S(=O)(=O)Nc2cccnc2)c1 | i | 0.3% | 3.6% | i | 1e-09
COc1ccc(OCC(=O)Nc2cccc(NC(=O)COc3ccc(OC)cc3)n2)cc1 | i | -1.6% | 12.1% | i | 5.6e-09

In a second layout: entries from further up.
SMILES: O=C(O)CCC(=O)N1CCc2cc(S(=O)(=O)NC3CCCc4ccccc43)ccc21 (stereo not drawn)
  Resorufin fluor: i; AID923: -0.2%; TSHR agonist: 1.5%; A488 autofl: i; A647 autofl: 2.88e-08

SMILES: COC(=O)c1ccccc1NC(=O)c1cncc(Br)c1
  Resorufin fluor: i; AID923: 1.4%; TSHR agonist: 12.8%; A488 autofl: i; A647 autofl: 2.1e-08

(further entries)
SMILES | Resorufin fluor | AID923 | TSHR agonist | A488 autofl | A647 autofl
Cc1nc(C)c(C(=O)Nc2ccc(Oc3ccccc3)cc2)o1 | i | -0.4% | 12.9% | i | 2.11e-08
COc1ccc(C2CC(C(F)(F)F)n3nc(C(=O)O)c(Cl)c3N2)cc1OC (stereo not drawn) | · | 1.7% | 5.0% | · | ·
CCOC(=O)c1cccc(NC(=O)CN(c2ccc(C)cc2)S(=O)(=O)c2c(C)noc2C)c1 | i | 0.9% | 9.1% | i | 1.92e-08
COc1ccc(N2C(=O)CC(Sc3nnc(-c4ccccc4)o3)C2=O)cc1 (stereo not drawn) | · | 3.6% | ? | · | ·
O=C(CSc1nnc2ncccn12)N1CCCCCC1 | i | 2.6% | 5.2% | i | 1e-09
COc1cc(C)c(Cl)cc1S(=O)(=O)NCC1CCCO1 (stereo not drawn) | i | 0.0% | 2.1% | i | 1.88e-08
CC(NC(=O)c1noc2c1CCCCC2)c1ccccc1 (stereo not drawn) | · | 0.2% | 2.1% | · | ·
COc1cccc(N2CCN(C(=O)c3ccc(=O)oc3)CC2C)c1 (stereo not drawn) | i | · | · | i | 1.4e-09
CO[C@H]1COC(=O)C/C=C\[C@H](C)[C@@H](OC)COC(=O)[C@H](Cc2ccccc2)NC(=O)C/C=C\[C@@H]1C | · | -0.9%[11.5 µM] | 11.5%[11.4 µM] | · | ·
Nc1c(C(=O)NCC2CCCO2)sc(=S)n1-c1ccccc1 (stereo not drawn) | · | 1.1% | -2.8% | · | ·
CCCCC(=O)NC1=NC(=O)C(C)(C)S1 | i | 1.4% | 1.4% | i | 4.58e-08
COc1ccc(NC(=O)C(c2ccccc2)N(C)C(=O)c2cnccn2)cc1 (stereo not drawn) | i | -0.6% | 6.4% | i | 2.1e-09
CCN1CCN(c2nc3c(C)cccn3c(=O)c2/C=C(\C#N)S(=O)(=O)c2ccccc2)CC1 | i | · | · | i | 1.4e-09
c1ccc2[nH]c(CSc3nnc(-c4ccncc4)o3)nc2c1 | i | 0.3% | 12.0% | i | 8.1e-09
O=C(O)c1cccc(NC(=O)C23CC4CC(C2)CC(n2cnc(Cl)n2)(C4)C3)c1 | i | -0.4% | -2.1% | i | 2.7e-09
NC(=O)CS(=O)C[C@H](N)C(=O)O (stereo partly drawn) | i | 3.0%[11.5 µM] | -1.2%[11.4 µM] | i | 2.69e-08
N=c1n(CCN2CCCC2)c2ccccc2n1CC(O)c1ccco1 (stereo not drawn) | i | 1.9% | 2.7% | i | 1e-09
